Lassa entry inh: blocks Lassa virus binding to or entry into cells | Lassa virus pseudotype entry inhibition, cell reporter; control for the full effect not named in the record | hit rate 1.2% among 300,000 | Potency, µM (highest dose often 37.9 µM), inactives show at the highest dose activity change, negative = inhibition, most hits filed as inhibitors; active means well fitted inhibition curve with a large enough effect; inconclusive means small, poorly fitted or top-dose-only effect, or effect the other way; inactive means flat fitted curve, though single readings scatter; tested in HEK293 cells; further: on the % scale 0 is the no-effect control and ±100 the full control effect; nearly all actives have a fitted effect of over 50% in size; luciferase read-out
NS1 function inh: blocks influenza NS1 protein function; S. cerevisiae slowed by influenza A NS1, growth recovery by OD600; Potency, µM (top dose mostly 46.1 µM), inactives show at the highest dose activity, positive = more growth; hit rate 0.4% among 270,000; active means well fitted rising curve with a large enough effect; inconclusive means small, poorly fitted or top-dose-only effect; inactive means no such curve, though single readings can be large or run the other way; further: nearly all actives have a fitted effect of over 50% in size
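A cell-based growth assay was used: compounds that relieve NS1-induced slow growth of budding yeast raise OD600. Assay medium was yeast nitrogen base with ammonium sulphate and -URA supplement, pH 6.0, with 2% galactose.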
MARV entry inh: inhibitors of Marburg virus binding or cell entry. Potency, µM (doses to about 37.8 µM), for the others: at the highest dose activity change, negative = inhibition, usual class: inhibitors. AID 540276. hit rate 1.8% among 300,000. Marburg virus pseudotyped entry inhibition, cell reporter; control for the full effect not named in the record; about a third of the inactives were read at about 46 µM; active = well fitted inhibition curve with a large enough effect; inconclusive = small, poorly fitted or top-dose-only effect, or effect the other way; inactive = flat fitted curve, though single readings scatter; tested in HEK293 cells; about a fifth of its hits are not listed in these tables; further: on the % scale 0 is the no-effect control and ±100 the full control effect; luciferase read-out
SARS PLpro yeast: SARS-CoV PLP inhibition in yeast | hit rate 0.19% among 330,000 | S. cerevisiae expressing SARS-CoV PLpro, growth rescue; control for the full effect not named in the record | Potency, µM (doses to about 32.9 µM), for the others: top-dose activity, positive = growth rescue; active means well fitted rising curve with a large enough effect; inconclusive means small, poorly fitted or top-dose-only effect; inactive means no such curve, though single readings can be large or run the other way; further: 0% is about no effect; nearly all actives have a fitted effect of over 55% in size; growth read by luminescence after 48 h
2A StopGo: FMDV 2A StopGo reporter, luciferase signal; human cells with a luciferase reporter of 2A StopGo recoding; control for the full effect not named in the record; Potency, µM (titrated, usually from 57.9 µM), without a hit: at the top dose signal change, negative = less light; hit rate 1.2% among 410,000; active = well fitted falling curve with a large enough effect; inconclusive = small, poorly fitted or top-dose-only effect; inactive = no such curve, though single readings can be large or run the other way; tested in HEK293T cells; further: on the % scale 0 is the no-effect control and ±100 the full control effect; nearly all actives have a fitted effect of over 45% in size; luciferase light after 4 h
Cruzain Triton: inhibitors of Trypanosoma cruzi cruzain with detergent | AID 1478 | purified cruzain, Z-FR-AMC fluorescence, 0.01% Triton | P25779 | hit rate 0.43% among 200,000 | Potency, µM, without a hit: max response, negative = inhibition, usual class: inhibitors;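 further: plate controls were neutral wells for no effect and buffer without enzyme for full effect; nearly all actives have a fitted effect of over 40% in size; top concentration of the series not given in the record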
Target sequence (P25779 123-467 limits assumed): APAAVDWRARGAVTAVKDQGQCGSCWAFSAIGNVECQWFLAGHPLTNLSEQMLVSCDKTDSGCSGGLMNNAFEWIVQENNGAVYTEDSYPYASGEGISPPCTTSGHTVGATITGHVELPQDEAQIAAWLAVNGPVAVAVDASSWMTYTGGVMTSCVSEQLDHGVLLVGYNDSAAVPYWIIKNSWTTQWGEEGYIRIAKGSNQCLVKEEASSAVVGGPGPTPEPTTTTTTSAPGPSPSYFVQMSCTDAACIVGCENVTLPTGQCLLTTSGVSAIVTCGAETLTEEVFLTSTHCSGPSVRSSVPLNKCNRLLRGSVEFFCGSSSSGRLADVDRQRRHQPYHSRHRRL
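Enzyme 1.5 nM, Z-FR-AMC 2 uM, NaOAc 100 mM pH 5.5, DTT 5 mM, Triton X-100 0.01%; 15 min RT compound preincubation; kinetic ex360/em450, 60 s delta.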
Cruzain inh noDet: cruzain (T. cruzi) inhibition without detergent | AID 1476 | Potency, µM, for the others: max response, negative = inhibition, actives largely listed as inhibitors | purified cruzain, Z-FR-AMC fluorescence, no detergent | hit rate 2.3% among 200,000;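 further: plate controls were enzyme without inhibitor for no effect and buffer without enzyme for full effect; nearly all actives have a fitted effect of over 40% in size; top concentration of the series not given in the record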
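Detergent-free condition (0.00005% Triton X-100) in acetate buffer pH 5.5 with DTT. 1.5 nM enzyme and compound were pre-mixed 15 min, then 2 uM Z-FR-AMC substrate added; reaction progress from fluorescence change between first and third reads (60 s).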
RE007 growth inh: less growth of the S. pombe RE007 Vpr strain | Potency, µM (titrated, usually from 92.2 µM), for the others: at the top dose activity change, negative = less growth | S. pombe RE007 Vpr strain, BacTiter-Glo ATP luminescence, 24 h; control for the full effect not named in the record | hit rate 0.21% among 360,000; active = well fitted falling curve with a large enough effect; inconclusive = small, poorly fitted or top-dose-only effect; inactive = no such curve, though single readings can be large or run the other way;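 further: on the % scale 0 is the no-effect control and ±100 the full control effect; nearly all actives have a fitted effect of over 50% in size; the assay follows cell death caused by Vpr and the record does not say whether a fall means rescue or toxicity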
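Fission yeast strain RE007, carrying one chromosomally integrated HIV-1 vpr copy, was seeded at OD 0.01 in PMG+AL medium with 23 nL pinned compound. After 24 h at 30 °C and 99% humidity, viability was read by BacTiter-Glo luminescence.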
The depositor's hits bear a star; ? = inconclusive; . = not tested or not shown; & = joins results of further samples; [ ] = remark or other dose. Unless noted, the call rests on the fitted dose curve; in most records, active means well fitted curve in the direction sought with a large enough effect; inconclusive means small, poorly fitted or top-dose-only effect, or another doubt; inactive means no such curve, though single readings can be large; an effect the other way counts as inactive or inconclusive. Potency means the concentration at half of the fitted maximal effect. Not a hit list; overall some 4.5% were active at least once.

Results follow in this order: Lassa entry inh, NS1 function inh, MARV entry inh, SARS PLpro yeast, 2A StopGo, Cruzain Triton, Cruzain inh noDet, RE007 growth inh
- O=C(Nc1ccc2snnc2c1)N1CCOCC1
  3%, -3%, 4%, 0%, 1%, -4.7%, -9%, 22%
- COc1cc(C2C(C#N)=C(N)Oc3c2ccc2ccccc32)ccc1OCC(=O)Nc1ccccc1C (stereo not given)
  -17%, 29%, ?, 2%, -15%, 1.5%, 13µM*, -3%
- CN1CCN(c2nc3c(c(=O)[nH]c(=O)n3C)n2CCCSc2nnnn2-c2ccccc2)CC1
  2%, ., 11%, 0%, 6%, ., ., 9%
- O=C(Nc1cccc(S(=O)(=O)N2CCCC2)c1)c1ccc2c(=O)n3c(nc2c1)CCCCC3
  21µM*, -31%, ?, -8%, 13µM*, 0.5%, ?, 3%
- Cc1ccc(C2=Nc3ccc(Br)cc3C(c3ccncc3)=NN2)cc1
  3%, 6%, ?, -2%, 2%, ., ., -13%
- CCOc1ccc(C(=O)Nc2ccc(-c3nc4cc(C(C)C)ccc4o3)cc2)cc1Cl
  4%[46.1 µM], ., ., ., -28%, -2.1%, 11%, .
- O=C(Nc1ccccc1)c1cccc(N2CCCS2(=O)=O)c1
  -4%[46.1 µM], ., ., ., -6%, 1.6%, -10%, .
- CCC(=O)NC1OC(CO)C(O)C(O)C1O (stereo not given)
  ., 5%, ., 0%, -4%, ., ., 6%
- CC(C)(CO)N1CCN(C(=S)Nc2ccccc2)CC1
  ., 5%&-4%, ., 8%, 22µM*, 0.8%, 5%, .
- COc1ccccc1C(=O)NC(CCSC)C(=O)NCc1ccccn1 (stereo not given)
  -2%, ., ?, 1%, 10%, ., ., -10%
- CCC(Oc1ccccc1)C(=O)Nc1ccc(-c2nnc(-c3ccco3)o2)cc1 (stereo not given)
  ?, -5%, 1%, -7%, 10%, -6.6%, 9%, 52%
- COc1ccc(S(=O)(=O)N2CCc3ccccc32)cc1C(=O)Nc1cccnc1
  -3%, 1%, 1%[46.1 µM], 0%, -19%, ., ., -5%
- CCOC(=O)c1nc(Nc2ccc(C(=O)OC(C)C)cc2)c2ccccc2n1
  -6%[46.1 µM], ., 0%[46.1 µM], ., -15%, -11%, ?, .
- Cn1c(N)c(S(=O)(=O)N2CCN(c3ccccc3F)CC2)c(=O)n(C)c1=O
  17%, 4%, 8%, -6%, -5%, ., ., 32%
- Cc1cc(/C=C(\C#N)C(=O)Nc2ccccc2)c(C)n1-c1cccnc1
  ?, 5%, ?, -3%, -12%, -9.5%, 4%, 1%
- Cc1cc(C(=O)CCC(=O)NNC(=O)c2ccccc2O)c(C)s1
  -3%[46.1 µM], ., -4%, 2%, -7%, ., ., -7%
- N#Cc1nc(COc2ccc(Cl)cc2)oc1N1CCCCCC1
  -18%, -11%, -15%, -14%, -14%, -9.4%, 2%, -4%
- Cn1c(=O)c2c(nc(N/N=C/c3cccs3)n2Cc2ccccc2)n(C)c1=O
  ?, -19%, -17%, 34%, 25µM*, -6.8%, -2%, 30%
- CCC(C)c1ccccc1NC(=S)Nc1cccnc1 (stereo not given)
  -5%, -3%, -7%, 3%, -2%, -10%, -2%, 6%
- CSCCC(NC(=O)c1ccc([N+](=O)[O-])cc1Cl)C(=O)OCC(=O)NC1CCCC(C)C1C (stereo not given)
  -2%, -32%, -8%, 8%, -12%, ?, ?, -6%
- O=C(NCc1ccco1)c1ccccc1-c1nc(-c2ccccc2)no1
  2%, -9%, -20%, 5%, 0%, -2.0%, -5%, -1%
- CCOC(=O)COn1c(=O)c(=O)n(OC)c2ccccc21
  7%, -5%, 4%[46.1 µM], 2%, 21%, 1.9%, -12%, 8%
- CCCn1nc(C(=O)N2CCN(c3ccccn3)CC2)c2ccccc2c1=O
  0%[46.1 µM], ., -21%[46.1 µM], -11%, -6%, ., ., -4%
- CCOc1ccc(OCC)c(NC(=O)CSc2nnc(Cn3cnc4ccccc43)n2C)c1
  2%, -9%, -17%, -12%, ., -2.4%, 10%, -5%
- O=C(NCc1ccc2c(c1)OCO2)C1CC(=O)N(c2ccc(Cl)cc2)C1 (stereo not given)
  24%[46.1 µM], 4%, 14%[46.1 µM], 3%, 1%, ., ., 11%
- Cc1cc(-c2nn(-c3ccccc3F)cc2CN2CCCC(O)C2)c(C)s1 (stereo not given)
  ., 1%, ., -3%, -27%, ., ., 4%
- O=C(C1CCC(Cn2c(=S)[nH]c3ccccc3c2=O)CC1)N1CCOCC1 (stereo not given)
  -5%, -2%, 0%, -6%, -7%, 1.7%, 3%, 10%
- COc1cc(C(C#N)N2CCC(c3ccccc3)=N2)ccc1O (stereo not given)
  17%, -3%, 13%[46.1 µM], -1%, 3%, ., ., -23%
- O=C(CCN1C(=O)c2ccccc2C1=O)N1CCOCC1
  3%, 0%, 22%[46.1 µM], 4%, 10%, 0.5%, 2%, -13%
- COc1cc(OC)cc(C(=O)NCCc2csc3nc(-c4ccccc4F)nn23)c1
  4%[46.1 µM], ., ., ., -4%, -1.5%, 1%, .

A different layout for 3 compounds above:
compound | Lassa entry inh | NS1 function inh | MARV entry inh | SARS PLpro yeast | 2A StopGo | Cruzain Triton | Cruzain inh noDet | RE007 growth inh
CCOc1ccc(OCC)c(NC(=O)CSc2nnc(Cn3cnc4ccccc43)n2C)c1 | 2% | -9% | -17% | -12% | . | -2.4% | 10% | -5%
O=C(NCc1ccc2c(c1)OCO2)C1CC(=O)N(c2ccc(Cl)cc2)C1 (stereo not given) | 24%[46.1 µM] | 4% | 14%[46.1 µM] | 3% | 1% | . | . | 11%
Cc1cc(-c2nn(-c3ccccc3F)cc2CN2CCCC(O)C2)c(C)s1 (stereo not given) | . | 1% | . | -3% | -27% | . | . | 4%

Further compounds.
Results follow in this order: Lassa entry inh, NS1 function inh, MARV entry inh, SARS PLpro yeast, 2A StopGo, Cruzain Triton, Cruzain inh noDet, RE007 growth inh
- Cc1cccc(NC(=O)c2cc(S(=O)(=O)N3CCc4ccccc43)cn2C)c1C
  ., 5%, ., -9%, -20%, ., ., 6%
- Cc1cc(C(=O)N2CCN(C(c3ccccc3)c3ccccc3)CC2)on1
  ., -155%, ., -9%, -28%, -4.0%, ?, 17%
- CN1CC2([N+](=O)[O-])CC=C(OCCO)C([N+](=O)[O-])(C1)C2 (stereo not given)
  7%, 3%, ?, 10%, -20%, 1.6%, -10%, -11%
- Cc1ccc(C)c(Nc2cc(C(=O)NCc3cccnc3)c3ccccc3n2)c1
  -23%, 0%, ?, -1%, 14%, ., ., 5%
- CC(C)CN(C(=O)COC(=O)/C=C/c1ccc(Cl)c(Cl)c1)c1c(N)n(Cc2ccccc2)c(=O)[nH]c1=O
  -3%, ., 21%, -2%, -28%, ., ., -10%
- COC(=O)c1cc(S(=O)(=O)N(C)Cc2ccco2)c[nH]1
  ., -13%, ., -2%, -16%, ., ., -5%
- c1ccc(-c2nnc(CN3CCN(c4ccccc4)CC3)o2)cc1
  ?, -7%, 2%[46.1 µM], -6%, -20%&-8%, -2.9%, -2%, 13%
- O=S(=O)(c1cc(F)ccc1F)N1CCN(c2ccccn2)CC1
  ., 10%, ., -10%, -20%, ., ., 2%
- CCOC(=O)c1sc(NC(C)=O)c(C(=O)OCC)c1C
  -11%, -3%, 4%, 11%, -3%, -1.3%, ?, -15%
- Cc1cc(Cl)c(OCCOCCN2CCC(C)CC2)c(Br)c1
  ?, -5%, 6.5µM*, 1%, -13%, -3.0%, -20%, 4%
- CCOC(=O)c1cnn2c(C)cc(-c3ccccc3)nc12
  7%, -6%, 9%, -6%, 40%[activator], -6.3%, 13%, -3%
- COc1ccc(-c2noc(CCCC(=O)NC3CCCCC3)n2)cc1OC
  -10%, -1%, -4%[46.1 µM], -1%, -11%, ., ., 1%
- COC(=O)Cn1ncc2c3ccccc3n(C)c2c1=O
  21%, -49%, ?, 2%, 18%, 1.1%, -11%, 8%
- Cc1nc(Cl)c2c(n1)N(CC(N)=O)C(=O)CO2
  2%, 20%, 34%, 7%, -8%, 0.2%, 5%, 11%
- CC(=O)N1CCc2c(sc3c2c(=O)n(-c2ccccc2)c(=O)n3Cc2cccc(C(F)(F)F)c2)C1
  ., ., -24%[46.1 µM], ., -26%, -16%, ?, .
- O=C1OCCC1Sc1nc2ccccc2c(=O)n1Cc1ccc(F)cc1 (stereo not given)
  8%, -22%, 4%, 13%, 3%, -6.1%, -10%, -9%
- Cc1cc(C)nc(-n2nc(C)cc2NC(=O)c2cccc(S(=O)(=O)N(C)C)c2)n1
  7%, -9%, 22%, 0%, -16%, 7.4%, 9%, -7%
- Nc1nc(SCC(=O)Nc2ccc(Cl)cc2C(F)(F)F)n[nH]1
  16%, 16%, ?, 21%, -25%, ., ., -9%
- CC(=O)c1ccc(NC(=S)N2CCN(CCN3C(=O)c4cccc5cccc(c45)C3=O)CC2)cc1
  25%, 3%, 29%, 3%, -7%, 3.0%, -3%, 2%
- COc1ccc(C(=O)CCC(=O)NCCc2c[nH]c3ccccc23)cc1
  -23%[46.1 µM], -3%, 8%[46.1 µM], 2%, -18%, ., ., -16%
- C=CCNC(=S)NNC(=O)COc1cccc(Cl)c1
  7%, -8%, 2%, 3%, -7%, 1.5%, -3%, 13%
- COc1ccccc1NC(=O)/C(C#N)=C/c1cccnc1
  ., -7%, ., -1%, -16%, ., ., -11%
- CN(CCOc1ccc(Cl)cc1)C(=O)c1cc([N+](=O)[O-])ccc1N1CCOCC1
  -21%[46.1 µM], ., ?, -2%, ?, ., ., -1%
- CC(=O)[C@H]1CCC2C3CC=C4C[C@@H](OS(=O)(=O)O)CC[C@]4(C)C3CC[C@@]21C (stereo not given in full)
  ?, -30%, -9%&-3%&-3%, ., ., -4.2%, ?, .
- CN(CC1CCCO1)S(=O)(=O)c1ccc(C(=O)N2CCN(c3ccccc3)CC2)cc1 (stereo not given)
  8%[46.1 µM], ., 7%[46.1 µM], 1%, 6%, ., ., 2%
- c1ccc(-c2ncnc3cc4n(c23)CCC4)cc1
  0%, 1%, -1%, 16%, 0%, 0.2%, -12%, 15%
